Bioassay records: PubChem, National Center for Advancing Translational Sciences (NCATS)
D2 potentiator – Beta-Arrestin HTS for Positive Allosteric Modulators of the Human D2 Dopamine Receptor: Potentiators; D(2) dopamine receptor (Homo sapiens), P14416; DiscoveRx D2 beta-arrestin cells, luminescence, 90 min; 100% = 57 uM dopamine signal; potentiation, % (concentration not given with the values); 0.23% of 360,000 active; active = potentiation of 50% or more; inconclusive = 30% to 50%; inactive = 30% or less;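 note: compound concentration not given in the record; tested on top of an EC20 dose of dopamine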
Target sequence (P14416 whole entry, looked up): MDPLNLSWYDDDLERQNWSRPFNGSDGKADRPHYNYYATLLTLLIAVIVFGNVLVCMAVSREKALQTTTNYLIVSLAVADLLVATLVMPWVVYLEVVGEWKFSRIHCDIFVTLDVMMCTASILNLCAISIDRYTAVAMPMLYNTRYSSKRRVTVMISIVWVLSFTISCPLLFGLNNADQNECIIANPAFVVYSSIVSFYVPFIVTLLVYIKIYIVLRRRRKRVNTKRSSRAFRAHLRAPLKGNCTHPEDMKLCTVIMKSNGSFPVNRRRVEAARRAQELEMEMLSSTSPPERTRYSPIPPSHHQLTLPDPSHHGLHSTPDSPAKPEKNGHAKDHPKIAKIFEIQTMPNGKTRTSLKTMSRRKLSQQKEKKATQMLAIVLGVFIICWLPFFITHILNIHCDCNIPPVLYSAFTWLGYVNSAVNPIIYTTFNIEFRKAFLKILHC
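PathHunter D2 cells, attached overnight at 37 deg C, received compound in DMSO plus dopamine at EC20 (50 nM final) for 90 min at 37 deg C. Beta-arrestin recruitment was read as luminescence after 1 h with detection reagent at ambient temperature.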
Six1-Eya2 inh – qHTS Assay for Inhibitors of the Six1/Eya2 Interaction. Homeobox protein SIX1 (Homo sapiens) + Protein phosphatase EYA2 (Homo sapiens), …. AlphaScreen GST-Six1/His-Eya2 binding, biochemical; hits give low values; control for the full effect not named in the record. activity change, % (concentration not given with the values). 0.56% of 360,000 active; in the data active = activity change below about -65%; inconclusive = about -30% to -65%; inactive = above about -30%; note: % is set by controls: 0 for no effect and ±100 for the full control effect
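Homogeneous AlphaScreen proximity assay pairing GST-Six1 with His-tagged Eya2 (added as 5X mix: 250 nM and 500 nM) in 50 mM Tris pH 8.0, 300 mM NaCl, 1 mM TCEP. Glutathione donor and nickel acceptor beads; 1 h, 37 °C, dark.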
CtBP-E1A blk – qHTS Assay for Inhibitors of the CtBP/E1A Interaction; activity change, % (test concentration not listed); 0.49% of 340,000 active; AlphaScreen GST-E1A/His-CtBP binding, 1536-well; hits give low values; control for the full effect not named in the record; AID 651724, 2012; in the data active means activity change below about -65%; inconclusive means about -30% to -65%; inactive means above about -30%; note: % is set by controls: 0 for no effect and ±100 for the full control effect; compound concentration not given in the record
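In 5 uL wells, 23 nL compound meets equimolar GST-E1A and His-CtBP (5X stock 125 nM each) for 2 h, 37 °C. Beads (5X, 50 ug/mL) then 1 h, 37 °C, dark.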
D2 agonist – Beta-Arrestin HTS for Positive Allosteric Modulators of the Human D2 Dopamine Receptor: Agonists; D(2) dopamine receptor (Homo sapiens), P14416; activation, % (concentration not given with the values); 0.084% of 360,000 active; DiscoveRx PathHunter D2 beta-arrestin, luminescence, 90 min; 100% = 57 uM dopamine signal; in the data active = activation above about 40%; inconclusive = about 15% to 40%; inactive = below about 15%; note: compound concentration not given in the record; the text of the record calls up to 30% inactive
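DiscoveRx PathHunter D2 beta-arrestin cells (2,100/well) attached overnight, then compound-stimulated 90 min at 37 C in HBSS/10 mM HEPES/0.1% Tween-20 buffer; beta-galactosidase complementation read by luminescence after 1 h at ambient temperature. Dopamine 57 uM final (EC100) as control.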
gsp antag – qHTS for Antagonists of gsp, the Etiologic Mutation Responsible for Fibrous Dysplasia/McCune-Albright Syndrome: qHTS; gsp-mutant cells, cAMP HTRF, 30 min; control for the full effect not named in the record; Potency, µM (doses to about 76.9 µM), for inactives: at the top dose activity change, negative = inhibition, most hits filed as inhibitors; 0.4% of 340,000 active; active = falling curve of any shape with a large fitted effect; inconclusive = falling curve, mostly with a smaller effect; inactive = flat or rising curve; cell line not stated here;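 note: intracellular cAMP measured with PDE inhibitor Ro 20-1724 present during compound exposure; potency is the fitted concentration of half-maximal effect; % is set by controls: 0 for no effect and ±100 for the full control effect; nearly all actives have a fitted effect of over 65% in size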
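HTRF cAMP read-out (cAMP-d2 plus anti-cAMP antibody-K in lysis buffer, 30 min RT). Before lysis, cells are exposed to compounds with […] for 30 min at 37C in DPBS containing Ca/Mg, BSA and Tween 20.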
gsp agonist – qHTS for Agonist of gsp, the Etiologic Mutation Responsible for Fibrous Dysplasia/McCune-Albright Syndrome: qHTS; 0.13% of 340,000 active; Potency, µM (highest dose often 76.9 µM), inactives show at the highest dose activation (cAMP increase), most hits filed as activators; gsp mutant cells, cAMP HTRF, 30 min; control for the full effect not named in the record; active = well fitted activation curve with a large enough effect; inconclusive = small, poorly fitted or top-dose-only effect, or another doubt; inactive = no such curve, though single readings can be large or run the other way; cell line not stated here;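 note: phosphodiesterase inhibitor Ro 20-1724 added with compounds to block cAMP breakdown; potency is the fitted concentration of half-maximal effect; nearly all actives have a fitted effect of over 60% in size; about a fifth of the inactives were tested at one dose only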
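Cells in DMEM/10% FBS with G418 were pretreated with compounds in DMSO plus […] (300 uM stock) for 30 min at 37C. cAMP was measured by HTRF (cAMP-d2 plus anti-cAMP antibody-K) after 30 min at room temperature.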
Numbers without * were called inactive; ? = inconclusive; nt = not tested or not shown; [ ] = remark or other dose.

SMILES	D2 potentiator	Six1-Eya2 inh	CtBP-E1A blk	D2 agonist	gsp antag	gsp agonist
CCOC(=O)Cn1nc(C)cc1NC(=O)c1ccncc1	-3	17	4	0.5	-8%	1%[15.4 µM]
Cc1cccc2cc(C#N)c(N3CCCC3)nc12	-6	0	-11	1.5	5%	-3%
O=C(O)c1ccccc1OCc1nc2ccccc2s1	-1	29	77	1.6	-6%	9%[15.4 µM]
O=C(Nc1cccc(C(F)(F)F)c1)N(Cc1ccc(Cl)cc1)CC(O)C(F)(F)F (stereo not given)	-20	7	11	0.7	-13%	-31%[inhibitor]
O=C(c1cccnc1)N1CCN(S(=O)(=O)c2ccc(Cl)cc2)CC1	-15	3	-1	-3.4	1%	-29%
COc1ccc(CCNC(=O)COC(=O)c2ccc(Br)o2)cc1	-4	0	0	-3.2	-15%	-20%
CN(C)CCC(=O)c1ccc(F)cc1	-10	2	1	-3.9	7%	-48%[inhibitor]
CCC(=O)Nc1ccc(C(=O)NNC(=O)c2ccc(Cl)cc2)cc1	1	18	0	-2.2	6%	-34%[15.4 µM]
Cc1ccc(CCNC(=O)c2cccc(N3CCCC3=O)c2)cc1	-9	5	-1	-0.1	1%	26%
Cc1cc(C)nc(NC(=O)c2ccc(Cl)cc2Cl)n1	-9	2	0	-1.6	7%	-8%
COc1ccc(Cl)cc1NC(=S)NCCN1CCOCC1	-3	-3	-3	-5.6	4%	7%
CC1=NN(c2nc(-c3ccc(C)cc3)cs2)C(=O)C1N=Nc1cccc(O)c1 (stereo not given)	-2	-17	-16	-1.8	-2%	19%[15.4 µM]
COCCCNC(=S)Nc1ccc(OC(F)F)cc1C	-8	-2	8	-0.1	0%	-53%[inhibitor]
Cc1ccc(C(=O)OCC(=O)Nc2ccc(C)c(S(=O)(=O)N3CCCCC3)c2)o1	-11	-5	4	-0.8	nt	?
COC(=O)Cc1ccc(NC(=S)NCc2ccccc2)cc1	-1	1	-20	-4.1	0%	8%[15.4 µM]
Cn1c(CNC(=O)c2ccc(Cl)cc2)nnc1SCC(=O)N1CCOCC1	-6	13	17	-1.3	4%	1%
Cc1cc(Nc2ccc(Cl)cc2)n2ncnc2n1	-4	-5	0	-1.9	-2%	-33%[inhibitor]
COc1ccc(/C=C/c2nnc(NC(=O)C(C)(C)C)s2)cc1	5	9	6	7.2	-12%	5%[15.4 µM]
CCOC(=O)CSc1[nH]c(=O)cc(C)c1C#N	-9	3	-1	-3.1	-5%	-14%
COc1cc(NC(=O)COc2ccc(Cl)cc2)ccc1-c1cc2ccccc2oc1=O	10	4	12	0.3	-4%	2%
O=c1cc(-c2ccc(O)c(-c3c(O)cc(O)c4c(=O)cc(-c5ccc(O)cc5)oc34)c2)oc2cc(O)cc(O)c12	-3	-21	-68*	-0.4	-4%	-34%[inhibitor]
O=C(COCc1nc2ccccc2c(=O)[nH]1)NCC1CCCCC1	-5	-2	6	-2.6	7%	13%
CCc1ccc(NC(=S)NC2CC3CCCC(C2)N3Cc2ccccc2)cc1 (stereo not given)	-21	-14	nt	-2.3	5%	6%
CN(Cc1ccccc1OCCO)CC1CCCN(CCc2ccc(Cl)cc2)C1 (stereo not given)	-60	8	nt	-4.9	-5%	0%
O=C(Nc1ccc2c(c1)CCC2)c1cnccn1	-9	1	4	-2.6	-2%	20%
COc1ccc(/C=N/NC(=O)CNS(=O)(=O)c2ccc(C)cc2)cc1	-1	5	4	4.0	-6%	?
Cc1cc(=O)[nH]c(SCC(=O)Nc2cc(S(=O)(=O)N(C)C)ccc2Cl)n1	-18	-4	nt	4.0	-4%	11%
O=C(CCN1CCCC1)Nc1ccc(Br)cc1	-31	9	4	-3.7	1%	0%
Cc1cccc(-c2nc(CN3CCN(Cc4cccc(F)c4)CC3)c(C)o2)c1	-6	-10	-8	-5.0	3%	?
CC(C)CC(=O)N1CC(=O)Nc2ccc(F)cc2C1c1ccccc1 (stereo not given)	-7	12	nt	-6.2	1%	13%
CSc1ccccc1NC(=O)c1cc2c(=O)n3ccccc3nc2s1	8	5	5	-1.2	?	-10%
Cc1ccc2c(Cl)cc(Cl)c(OCC(=O)NC(C)(C)C)c2n1	-8	5	-13	-2.9	-8%	-14%
Cc1ccc(C(=O)N2CCN(c3ccc([N+](=O)[O-])c(NCc4ccco4)c3)CC2)cc1	-3	-18	-30	-3.4	-8%	-15%
CC(CCc1ccccc1)C(=O)NO (stereo not given)	2	0	2	-1.7	12%	?
Cc1cs/c(=N/C(=S)Nc2ccccc2)n1C	-12	5	-5	-2.3	2%	0%
CCn1ccnc1CC1COc2ccccc2O1 (stereo not given)	-11	4	0	-0.9	-1%	nt
Cc1ccc(C)c(-n2c(-c3ccc4c(c3)OCO4)n[nH]c2=S)c1	-16	-1	-4	-1.0	-24%	12%
CCCn1nnc(NC(=S)NC(=O)CC)n1	-14	2	2	-1.4	-10%	19%
CNc1c(NS(=O)(=O)c2cc(OC)ccc2OC)c(=O)oc2ccccc12	-3	2	-10	3.4	-2%	9%
CCN(CC)C(=O)CSc1nc2sc3c(c2c(=O)n1CCOC)CCC3	5	1	7	4.8	-13%	-18%
CSCCC(NC(=O)c1ccccc1)C(=O)NC1CCCC1 (stereo not given)	-7	2	0	0.7	10%	-2%
O=C(c1ccc2c3c(cccc13)CC2)C1CCCN(Cc2ccc(OCCO)cc2)C1 (stereo not given)	-5	?	nt	-0.1	2%	-35%[inhibitor]
C=CCn1c(SCC(=O)c2ccc(NS(=O)(=O)c3ccccc3)cc2)nnc1-c1cccs1	-8	-9	-10	-0.9	-22%	-6%
O=C(CSc1nc2ccccc2c(=O)n1Cc1ccco1)NCc1ccccc1	-9	3	5	-0.3	0%	13%
N#Cc1ccc2sn(-c3ccccc3)c(=O)c2c1	-13	-16	1	-8.7	nt	-6%

Just D2 potentiator, for some of the entries so far:
| canonical_smiles | D2 potentiator |
| --- | --- |
| CNc1c(NS(=O)(=O)c2cc(OC)ccc2OC)c(=O)oc2ccccc12 | -3 |
| CCN(CC)C(=O)CSc1nc2sc3c(c2c(=O)n1CCOC)CCC3 | 5 |

Part of the list above, as a markdown table.
| compound | D2 potentiator | Six1-Eya2 inh | CtBP-E1A blk | D2 agonist | gsp antag | gsp agonist |
| --- | --- | --- | --- | --- | --- | --- |
| COc1ccc(/C=N/NC(=O)CNS(=O)(=O)c2ccc(C)cc2)cc1 | -1 | 5 | 4 | 4.0 | -6% | ? |
| Cc1cc(=O)[nH]c(SCC(=O)Nc2cc(S(=O)(=O)N(C)C)ccc2Cl)n1 | -18 | -4 | nt | 4.0 | -4% | 11% |
| O=C(CCN1CCCC1)Nc1ccc(Br)cc1 | -31 | 9 | 4 | -3.7 | 1% | 0% |
| Cc1cccc(-c2nc(CN3CCN(Cc4cccc(F)c4)CC3)c(C)o2)c1 | -6 | -10 | -8 | -5.0 | 3% | ? |
| CC(C)CC(=O)N1CC(=O)Nc2ccc(F)cc2C1c1ccccc1 (stereo not given) | -7 | 12 | nt | -6.2 | 1% | 13% |
| CSc1ccccc1NC(=O)c1cc2c(=O)n3ccccc3nc2s1 | 8 | 5 | 5 | -1.2 | ? | -10% |
| Cc1ccc2c(Cl)cc(Cl)c(OCC(=O)NC(C)(C)C)c2n1 | -8 | 5 | -13 | -2.9 | -8% | -14% |
| Cc1ccc(C(=O)N2CCN(c3ccc([N+](=O)[O-])c(NCc4ccco4)c3)CC2)cc1 | -3 | -18 | -30 | -3.4 | -8% | -15% |
| CC(CCc1ccccc1)C(=O)NO (stereo not given) | 2 | 0 | 2 | -1.7 | 12% | ? |
| Cc1cs/c(=N/C(=S)Nc2ccccc2)n1C | -12 | 5 | -5 | -2.3 | 2% | 0% |
| CCn1ccnc1CC1COc2ccccc2O1 (stereo not given) | -11 | 4 | 0 | -0.9 | -1% | nt |

(cont.)
SMILES	D2 potentiator	Six1-Eya2 inh	CtBP-E1A blk	D2 agonist	gsp antag	gsp agonist
CC(=O)Nc1ccc(NS(=O)(=O)Cc2ccccc2)cc1	-16	2	2	-4.0	13%	-19%
Cc1cccc2c(N=Nc3ccc(S(=O)(=O)Nc4ccc(Cl)cc4)cc3[N+](=O)[O-])c(O)[nH]c12	1	5	-30	0.1	-1%	0%[15.4 µM]
CC(=C1C(=O)c2ccccc2C1=O)N1CCN(c2ccc(F)cc2)CC1	-22	-2	nt	-3.7	4%	-12%
C=CCNC(=O)COc1coc(CN2CCN(C(=O)c3ccco3)CC2)cc1=O	-6	4	-1	-0.6	10%	18%[15.4 µM]
Cc1ccc(NC(=O)CCn2c(=O)c3cccn3c3ccccc32)c(C)c1	-21	-14	-23	-1.7	-3%	?
C/C(=N\Nc1nc(C)cc(-c2ccccc2)n1)c1cccc(N)c1	-2	8	nt	0.5	-18%	-29%
Cc1ccc([N+](=O)[O-])cc1-c1ccc(/C=N\n2nnnc2N)o1	0	-13	nt	-1.7	-1%	14%
COc1ccc(CC(=O)N(CC2CCCO2)c2nc3ccccc3s2)cc1 (stereo not given)	-14	0	-2	1.2	2%	20%[15.4 µM]
COc1ccc(NC(=O)N(C)C[C@H]2Oc3ccc(NS(=O)(=O)c4ccccc4)cc3C(=O)N([C@H](C)CO)C[C@@H]2C)cc1	-6	36	-6	-1.4	7%	?
COCCn1c(SCC(=O)N2CCCCC2)nc2c([nH]c3ccccc32)c1=O	-3	4	3	2.8	-7%	-25%
O=C(CN(C(=O)CNC(=O)c1ccco1)c1ccc(F)cc1)NC1CCCCC1	0	10	5	1.6	7%	4%
CC12CCC(=O)N1C(C(=O)NNC(=O)c1ccccc1)CS2 (stereo not given)	3	0	7	-3.3	12%	-12%
CC(=O)Nc1ccc(/C=N/NC(=O)CC2CCCCC2)cc1	2	11	18	8.7	nt	nt
Cc1ccc(S(=O)(=O)NCC(=O)OCC(=O)c2cc(C)n(-c3ccccc3)c2C)cc1	-10	-27	-9	-4.2	2%	-2%[15.4 µM]
Cc1ccc(OCCC(=O)OCC(=O)Nc2cc(S(=O)(=O)N(C)C)ccc2C)cc1	-11	5	5	-0.6	-22%	17%
